# INS promoter inh = TRM-6 insulin promoter activity inhibition | TRM-6 cells (human fetal islet line), insulin promoter-eGFP reporter, imaging; reporter expression induced with tamoxifen | 0.9% of 130,000 active | inhibition, % at 2 µM | AID 1273;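 active means inhibition above the mean plus 3 SD, with well images judged a real hit on visual review, cut at about 60% in these data, passing the limit was not always enough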
# HSV augment = increases HSV replication in cells. maximum fold increase. 0.005% of 220,000 active. HSV replication augmentation in cells, fold increase;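 active means peak rise of 1.5-fold or more in the series; tested in PC3 cells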;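 further: first round at 10 µM; read as green reporter fluorescence; hits show the peak of a series up to 25 µM; 1 = signal of infected wells without compound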
# RGS16-Gao = modulates binding between human RGS16 and Galphao. bead-based flow cytometry RGS16-Galphao binding, fluorescence; actives lie on both sides. binding response (% of control), % at 10 µM. 0.38% of 220,000 active;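 active means below 25% or above 175%, edge rows of some plates excepted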;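 further: Galphao activated by GDP with aluminum fluoride before binding; 100% = wells without compound and 0% = beads without RGS; some results beyond the cut were filed as inactive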
# Target sequence (O15492 whole entry, looked up): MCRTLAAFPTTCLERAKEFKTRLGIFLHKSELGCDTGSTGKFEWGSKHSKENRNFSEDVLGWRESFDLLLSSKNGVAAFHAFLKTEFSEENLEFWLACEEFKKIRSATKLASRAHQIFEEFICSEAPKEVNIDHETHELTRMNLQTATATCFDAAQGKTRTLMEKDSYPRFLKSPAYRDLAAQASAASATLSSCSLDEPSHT
# Target sequence (P09471 whole entry, looked up): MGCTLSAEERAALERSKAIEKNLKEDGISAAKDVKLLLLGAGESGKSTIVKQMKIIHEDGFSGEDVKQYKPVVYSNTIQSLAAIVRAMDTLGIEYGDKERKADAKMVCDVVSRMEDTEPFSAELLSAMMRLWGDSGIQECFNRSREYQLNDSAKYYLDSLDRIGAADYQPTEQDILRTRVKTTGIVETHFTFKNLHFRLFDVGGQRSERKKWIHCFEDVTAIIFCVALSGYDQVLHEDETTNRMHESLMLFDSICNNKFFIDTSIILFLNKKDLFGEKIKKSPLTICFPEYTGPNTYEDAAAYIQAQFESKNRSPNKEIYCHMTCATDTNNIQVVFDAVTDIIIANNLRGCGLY
# PKD1 kinase inh = inhibitors of human PKD1 kinase. PKD1 kinase fluorescence polarization assay. Q15139. inhibition, %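 (about 10 µM by stock and volumes)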. 0.056% of 200,000 active;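 active means inhibition of 50% or more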;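 further: controls were vehicle for no effect and a reference inhibitor for full effect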
# GALR2 ag = GALR2 (human) receptor agonism | GALR2-expressing cells, agonist activation read-out | 0.48% of 140,000 active | activation, %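 (tested at 5 µM)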 | AID 803;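 active means above mean plus 3 SD of all compounds, about 5% in these data, not always enough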;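 further: 0% = vehicle buffer wells and 100% = reference agonist at full effect; tested in CHO reporter cells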
# Target sequence (O43603 whole entry, looked up): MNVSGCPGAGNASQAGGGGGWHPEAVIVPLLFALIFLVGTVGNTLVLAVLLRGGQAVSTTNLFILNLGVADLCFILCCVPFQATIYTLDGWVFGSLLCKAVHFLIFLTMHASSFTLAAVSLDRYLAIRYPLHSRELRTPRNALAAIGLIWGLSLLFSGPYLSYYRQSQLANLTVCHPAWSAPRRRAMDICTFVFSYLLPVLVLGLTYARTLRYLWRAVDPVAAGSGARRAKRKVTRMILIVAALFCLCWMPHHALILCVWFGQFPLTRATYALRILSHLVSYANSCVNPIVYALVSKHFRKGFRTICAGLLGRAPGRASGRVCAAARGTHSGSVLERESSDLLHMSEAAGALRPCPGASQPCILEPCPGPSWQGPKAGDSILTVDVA
# INS promoter inh cell count = further read-out of INS promoter inh, marked with its call; normalized cell count, %; measured here: cell count, toxicity; reference of the scale not given here;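 cells exposed to compound for 48 h; stained nuclei by imaging scaled within each plate; lower means fewer cells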
# HSV augment primary fold = second read-out of HSV augment, no call of its own (marks repeat the call); fold increase; compound at 10 µM; measured here: primary screen fold increase 10 uM; tested in PC3 cells;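 GFP signal in the first replicate; 1 = infected wells without compound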
# Starred values were filed as active, the others as inactive; i = inactive; · = no result given.
SMILES,INS promoter inh,INS promoter inh cell count,HSV augment,HSV augment primary fold,RGS16-Gao,PKD1 kinase inh,GALR2 ag
CCOC(=O)/C(=N\Nc1ccc(C(C)=O)cc1)c1csc(Nc2ccccc2)n1,0,94,i,0.85,101,5,0.8
COC(=O)N1CC(C)N(C(=O)OC)CC1C (centres undefined),27,90,i,1,104,-7,-1.2
O=C(COc1ccccc1[N+](=O)[O-])N/N=C/C=C/c1ccco1,·,·,·,·,93,-11,-4.0
Cc1ccc(NS(=O)(=O)c2cc(N)ccc2Cl)c(C)c1,·,·,i,1.1,97,·,·
Cc1nc(SCC(=O)NCC2CCCO2)c2oc3ccccc3c2n1 (centres undefined),-36,109,i,0.96,66,-8,-2.1
O=C(Nn1cnnc1)c1cc2cc(Br)ccc2oc1=O,40,145,i,1,104,0,-2.9
O=C/C(=C\Nc1ccc(S(=O)(=O)CCO)cc1)c1nc2cc(Cl)ccc2o1,·,·,i,1.3,101,4,·
COc1ccc(-n2cc(CN(C)CCO)c(-c3cccc(F)c3)n2)cc1,27,107,i,0.69,93,-3,·
NC(=S)Nc1ccc(Oc2ccc(NC(N)=S)cc2)cc1,·,·,i,0.87,107,-14,-3.0
N=C1C(=O)OCC1c1ccccc1NC(=O)c1ccccc1 (centres undefined),0,126,i,0.91,96,-6,-1.4
COc1cc(NC(=O)Nc2ccc(C)cc2)cc([N+](=O)[O-])c1,6,133,i,0.76,108,-6,0.0
O=C(NCCC1=CCCCC1)C1CCN(S(=O)(=O)c2cccs2)CC1,-17,101,i,1,101,-9,-0.9
Cc1cc(C)cc(NC(=O)CSc2nnc(CNC(=O)c3cccs3)o2)c1,-11,64,i,0.78,103,-16,-2.2
C=CCn1c(SCC(=O)N(CC)CC)nc(O)cc1=O,9,128,i,0.84,100,6,-2.2
NC(=O)C[N+]1(CC#CC(O)(c2ccccc2)c2ccccc2)CCCC1,·,·,i,1.1,102,1,·
COc1ccc(N2CCN(C(CNC(=O)C(=O)NCc3cccnc3)c3ccco3)CC2)cc1 (centres undefined),·,·,i,0.91,97,-1,·
O=C(CN1CCOCC1)N1CCN(c2nnc(-c3ccccc3)c3ccccc23)CC1,6,121,i,0.74,108,7,-0.9
OCCNC(=S)NCc1ccccc1,·,·,i,1.3,110,·,·
CC1CC(C)CN(S(=O)(=O)c2ccc(C(=O)Nc3sccc3C(N)=O)cc2)C1 (centres undefined),·,·,i,0.76,100,-1,0.6
O=C(/C=C/c1cccc(F)c1)Nc1nccs1,67,122,i,0.95,104,-12,·
COc1ccc(CN(C2CCCC2)S(=O)(=O)c2ccc(-n3cnnn3)cc2)cc1,83*,104*,i,1.1,101,-2,-1.4
Cc1ccc(C)c2sc(NC(=O)CN3C(=O)CCC3=O)nc12,·,·,i,1,87,·,·
COc1ccc(OC)c(S(=O)(=O)NCc2cn3ccsc3n2)c1,-43,97,i,1,81,-2,-2.6
O=C(Nc1nccs1)C1CCN(S(=O)(=O)c2c(Cl)cccc2Cl)CC1,-19,118,i,1,98,-2,-1.7
O=C1NC(=S)N/C1=C\c1cccc([N+](=O)[O-])c1,-9,111,i,0.87,106,-3,-1.4
CSc1nnc2c3ccccc3n(CCc3ccccc3)c2n1,-28,119,i,0.62,104,-10,-1.0
CCN(CCNC(=O)C1CCN(S(=O)(=O)c2cccc3nsnc23)CC1)c1ccccc1,-25,66,i,0.71,102,-6,-0.8
CCC(=S)/C=C1\Sc2ccccc2N1CCCS(=O)(=O)O,·,·,i,0.96,89,6,-2.2
C[C@H]1C[C@H]2[C@@H]3CCC4=CC(=O)C=C[C@]4(C)[C@@]3(Cl)[C@@H](O)C[C@]2(C)[C@@]1(O)C(=O)CO,0,90,i,0.91,145,2,0.8
CN(C(=O)C1CCN(S(=O)(=O)c2cccs2)CC1)c1ccccc1,·,·,i,1.1,98,-4,·
Cc1csc2ncnc(N3CCN(C(=O)Nc4ccc(OC(F)(F)F)cc4)CC3)c12,·,·,i,0.83,95,·,·
COc1ccc2nc(NC(=S)NC(=O)c3ccco3)sc2c1,·,·,i,0.99,103,-1,·
CCN(CC)CCn1c(NCc2nc3ccccc3n2Cc2ccccc2)nc2ccccc21,0,170,i,0.93,110,8,-1.1
NC(=O)[C@H]1CC2(CC(c3cccc(NC(=O)CC(c4ccccc4)c4ccccc4)c3)=NO2)CN1C(=O)c1ccccc1C(=O)c1ccccc1 (some centres undefined),·,·,i,0.77,108,·,·
CN(CCO)c1cc(N(C)CCO)c([N+](=O)[O-])cc1[N+](=O)[O-],-18,118,i,0.93,102,-1,·
O=C(Cn1c(/C=C/c2ccccc2)nc2ccccc21)Nc1ccc(F)cc1,·,·,i,0.95,100,13,-1.1
Cc1ccc(S(=O)(=O)NCc2ccco2)cc1C(N)=O,8,83,i,0.9,62,9,·
Cc1ccc(NC2(C#N)C(=O)Nc3ccccc32)cc1 (centres undefined),30,80,i,0.94,97,-3,-3.4
CC(=O)Nc1cccc(OCC(=O)NS(=O)(=O)c2ccc(Cl)cc2)c1,-6,68,i,0.79,107,-12,-4.8
COc1ccc(-c2cc(C(F)(F)F)n3ncc(C(=O)N4CCCCC4c4cccnc4)c3n2)cc1 (centres undefined),-67,60,i,0.8,74,2,·
OCC1(Cc2cccc(Cl)c2)CCCN(Cc2sc(N3CCCC3)nc2Cl)C1 (centres undefined),·,·,i,0.99,103,-5,·
CS(=O)(=O)Nc1ccc(C(=O)Nc2cccc([N+](=O)[O-])c2)cc1,-6,105,i,0.98,103,-8,·
CNC(=O)CN1C(=O)CSc2nc(C)cc(C)c21,·,·,i,0.89,109,1,-1.2
CSc1nc(-c2ccc(C)cc2)nc(N)c1C#N,·,·,i,1.1,98,·,·
CCc1ccc(-n2c(SCc3c(C)noc3C)nnc2-c2ccncc2)cc1,-33,59,i,1,95,0,-3.3
NNC(=O)c1csc(-c2ccc(C(F)(F)F)cc2Cl)n1,·,·,i,0.87,101,·,·
N#CCSc1nnc(COc2ccc3ccccc3c2)o1,38,206,i,0.97,99,-7,-2.5
C/C(=N\S(=O)(=O)c1ccc(C)cc1)N1CCN(S(=O)(=O)c2ccccc2)C1,·,·,·,·,105,-3,-4.1
C[n+]1cccc2c(Br)ccc([O-])c21,·,·,i,0.92,83,·,·
CCc1cccc(OCCCCNCCO)c1,-9,106,i,1,106,-2,-2.8
CC(C)C(=O)Nc1nc2ccc(S(C)(=O)=O)cc2s1,33,90,i,1.1,116,-6,·
CCCc1cc(=O)[nH]c(SCC(=O)Nc2ccc(Br)cc2)n1,·,·,i,1.2,102,·,·
COc1ccc(CNc2nc3nc(C)c(Cl)c(=O)n3[nH]2)cc1,·,·,i,0.97,93,·,·
O=C(CSc1nnc2scc(-c3ccc(Cl)cc3)n12)NCc1ccc2c(c1)OCO2,26,69,i,0.84,101,-5,-2.2
COC(=O)c1ccc(Oc2nc(NC(C)C)nc(SC)n2)cc1,-31,102,i,1,101,-3,-1.1
c1ccc(CCC2CCCCN2Cc2cn[nH]c2-c2cc3ccccc3o2)nc1 (centres undefined),·,·,i,0.79,104,-5,·
O=c1[nH]ncc(N/N=C\c2ccncc2)c1Cl,·,·,i,1,101,4,·
O=C(NCc1ccccc1Cl)C1CC(=O)N(Cc2ccccc2)C1 (centres undefined),·,·,i,1.1,103,-1,·
Cc1nonc1OCCNc1ccc([N+](=O)[O-])cc1,42,125,i,1,110,-3,-2.8
Cc1cc(C)c2[nH]c(=O)c(C(c3nnnn3C(C)(C)C)N(Cc3ccco3)CC3CCCO3)cc2c1 (centres undefined),-9,94,i,1.1,105,6,-3.1

# (cont.)
SMILES,INS promoter inh,INS promoter inh cell count,HSV augment,HSV augment primary fold,RGS16-Gao,PKD1 kinase inh,GALR2 ag
COC1CCN(Cc2cn(Cc3ccccc3)nc2-c2cc3ccccc3o2)CC1,·,·,i,0.8,105,-2,·
CC(NC(=O)c1cccnc1)C(c1cccs1)N1CCOCC1 (centres undefined),0,80,i,0.84,101,-8,-1.6
CCCn1c(-c2ccccc2)cc(SC)c(C#N)c1=O,40,83,i,1,106,0,·
Cc1c(CCOC(=O)c2cc([N+](=O)[O-])cc([N+](=O)[O-])c2)sc[n+]1CC(=O)c1ccccc1,·,·,i,0.94,98,-5,·
Cn1ncc(Cl)c1C(=O)NCc1ccc(Cl)cc1,·,·,i,0.98,105,4,0.9
Cc1cc(C(=O)N/N=C(\CCC(=O)O)c2cccs2)c2ccccc2n1,-20,65,i,0.73,93,3,·
COc1cc(Cl)c(C)cc1NC(=O)COC(=O)c1cc(SC)ccc1Cl,·,·,i,0.92,96,-5,0.1
COc1ccc(NC(=S)Nc2cccnc2)c(OC)c1,·,·,i,0.92,107,1,·
Cc1cc(=O)n2[nH]c(-c3ccc(Cl)cc3)cc2n1,-69,40,i,0.9,100,-5,-1.9
COc1ccc([N+](=O)[O-])cc1NS(=O)(=O)c1cc(C(=O)O)ccc1OC,·,·,i,0.97,105,·,·
Cc1cc(Cl)ccc1OCCn1cncn1,·,·,i,0.81,97,0,·
CCOC(=O)Nc1nc2ccccc2s1,-25,69,i,0.89,118,-4,-0.4
O=C1CC(c2ccccc2)c2c(O)cc(O)cc2O1 (centres undefined),4,70,i,0.99,100,-9,-0.4
Cc1c(NC(=O)CSc2nnc(-c3cccc(Cl)c3)o2)c(=O)n(-c2ccccc2)n1C,67,130,i,0.91,93,6,-1.0
Cn1cc(CCC(=O)N2CCCC(CCC(=O)NCc3ccc(F)c(F)c3)C2)cn1 (centres undefined),·,·,i,1.2,100,9,·
CN(C)C(=O)CSc1nnc(-c2ccc(F)cc2)c2ccccc12,·,·,i,0.99,31,·,·
Cc1cc(C2(c3ccc(O)c(C)c3)C(=O)Nc3ccccc32)ccc1O,-127,124,i,0.81,98,6,-0.6
Cc1ccc(CNC(=O)CS(=O)(=O)c2ccccc2)cc1,·,·,i,1,95,-2,·
Cc1ccccc1NC(=O)/C(=C\c1cccs1)NC(=O)c1ccccc1,-88,123,i,0.94,100,3,-1.9
CSCC(CO)NS(=O)(=O)c1ccc(C)cc1 (centres undefined),·,·,i,0.96,108,·,·
COc1cc(/C=N/OCC(=O)NC2CCS(=O)(=O)C2)ccc1OC(F)F (centres undefined),·,·,i,0.93,93,-8,·
CCOC(=O)Cc1c(C)c2ccc(N(CC)CC)cc2oc1=O,·,·,·,·,103,-2,19*
COC(=O)/C(=C/c1cn(C)c2ccccc12)[N+](=O)[O-],-230,80,·,·,90,1,-2.9

# In the list so far, two have a COOH group.
SMILES,INS promoter inh,INS promoter inh cell count,HSV augment,HSV augment primary fold,RGS16-Gao,PKD1 kinase inh,GALR2 ag
Cc1cc(C(=O)N/N=C(\CCC(=O)O)c2cccs2)c2ccccc2n1,-20,65,i,0.73,93,3,·
COc1ccc([N+](=O)[O-])cc1NS(=O)(=O)c1cc(C(=O)O)ccc1OC,·,·,i,0.97,105,·,·

# In the list so far, 12 contain an aryl methoxy group:
SMILES,INS promoter inh,INS promoter inh cell count,HSV augment,HSV augment primary fold,RGS16-Gao,PKD1 kinase inh,GALR2 ag
COc1ccc(-n2cc(CN(C)CCO)c(-c3cccc(F)c3)n2)cc1,27,107,i,0.69,93,-3,·
COc1cc(NC(=O)Nc2ccc(C)cc2)cc([N+](=O)[O-])c1,6,133,i,0.76,108,-6,0.0
COc1ccc(N2CCN(C(CNC(=O)C(=O)NCc3cccnc3)c3ccco3)CC2)cc1 (centres undefined),·,·,i,0.91,97,-1,·
COc1ccc(CN(C2CCCC2)S(=O)(=O)c2ccc(-n3cnnn3)cc2)cc1,83*,104*,i,1.1,101,-2,-1.4
COc1ccc(OC)c(S(=O)(=O)NCc2cn3ccsc3n2)c1,-43,97,i,1,81,-2,-2.6
COc1ccc2nc(NC(=S)NC(=O)c3ccco3)sc2c1,·,·,i,0.99,103,-1,·
COc1ccc(-c2cc(C(F)(F)F)n3ncc(C(=O)N4CCCCC4c4cccnc4)c3n2)cc1 (centres undefined),-67,60,i,0.8,74,2,·
COc1ccc(CNc2nc3nc(C)c(Cl)c(=O)n3[nH]2)cc1,·,·,i,0.97,93,·,·
COc1cc(Cl)c(C)cc1NC(=O)COC(=O)c1cc(SC)ccc1Cl,·,·,i,0.92,96,-5,0.1
COc1ccc(NC(=S)Nc2cccnc2)c(OC)c1,·,·,i,0.92,107,1,·
COc1ccc([N+](=O)[O-])cc1NS(=O)(=O)c1cc(C(=O)O)ccc1OC,·,·,i,0.97,105,·,·
COc1cc(/C=N/OCC(=O)NC2CCS(=O)(=O)C2)ccc1OC(F)F (centres undefined),·,·,i,0.93,93,-8,·

# Rows are unselected; any-hit rate near 1.1%.
